gsp antag: qHTS for Antagonists of gsp, the Etiologic Mutation Responsible for Fibrous Dysplasia/McCune-Albright Syndrome: qHTS; gsp-mutant cells, cAMP HTRF, 30 min; control for the full effect not named in the record; Potency, µM (series often up to 76.9 µM), without a hit: top-dose activity change, negative = inhibition, most hits filed as inhibitors; actives 0.4% (n = 340,000); AID 624288, 2012; active = falling curve of any shape with a large fitted effect; inconclusive = falling curve, mostly with a smaller effect; inactive = flat or rising curve; cell line not stated here;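 note: intracellular cAMP measured with PDE inhibitor Ro 20-1724 present during compound exposure; potency is the fitted concentration of half-maximal effect; % is set by controls: 0 for no effect and ±100 for the full control effect; nearly all actives have a fitted effect of over 65% in size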
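HTRF cAMP measurement after 30 min RT detection following 30 min, 37C compound treatment alongside […] (added as 300 uM solution) in G418-selected cells seeded at 2000/well and grown 16–24 h.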
CtBP-E1A inh: qHTS Assay for Inhibitors of the CtBP/E1A Interaction. actives 0.49% (n = 340,000). activity change, % (test concentration not listed). AID 651724, 2012. CtBP / adenovirus E1A interaction (AlphaScreen). AlphaScreen GST-E1A/His-CtBP binding, 1536-well; stronger effect = lower value; control for the full effect not named in the record; in the data active means activity change below about -65%; inconclusive means about -30% to -65%; inactive means above about -30%; note: % is set by controls: 0 for no effect and ±100 for the full control effect; compound concentration not given in the record
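Homogeneous bead-based format: GST-tagged E1A captured on glutathione donor beads, His-tagged CtBP on nickel acceptor beads; compounds precede bead addition by 2 h at 37 °C.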
Six1-Eya2 blk: qHTS Assay for Inhibitors of the Six1/Eya2 Interaction | Homeobox protein SIX1 (Homo sapiens) + Protein phosphatase EYA2 (Homo sapiens), … | activity change, % (test concentration not listed) | AlphaScreen GST-Six1/His-Eya2 binding, biochemical; stronger effect = lower value; control for the full effect not named in the record | actives 0.56% (n = 360,000); in the data active = activity change below about -65%; inconclusive = about -30% to -65%; inactive = above about -30%; note: % is set by controls: 0 for no effect and ±100 for the full control effect; compound concentration not given in the record
Target sequence (O00167 whole entry, looked up): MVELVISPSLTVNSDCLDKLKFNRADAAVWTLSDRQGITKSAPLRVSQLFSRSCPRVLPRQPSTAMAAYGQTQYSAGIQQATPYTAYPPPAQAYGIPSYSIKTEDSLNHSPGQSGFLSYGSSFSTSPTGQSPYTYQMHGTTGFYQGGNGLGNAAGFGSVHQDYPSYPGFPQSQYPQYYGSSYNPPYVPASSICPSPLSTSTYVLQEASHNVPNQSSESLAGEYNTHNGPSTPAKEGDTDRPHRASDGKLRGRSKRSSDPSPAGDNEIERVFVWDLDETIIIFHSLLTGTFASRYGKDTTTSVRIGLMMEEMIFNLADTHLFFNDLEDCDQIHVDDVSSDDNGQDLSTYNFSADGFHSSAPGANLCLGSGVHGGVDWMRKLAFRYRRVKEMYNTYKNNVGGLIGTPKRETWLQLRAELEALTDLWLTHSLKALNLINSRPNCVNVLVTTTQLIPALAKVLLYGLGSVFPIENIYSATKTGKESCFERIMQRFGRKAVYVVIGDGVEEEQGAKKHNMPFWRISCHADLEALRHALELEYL
Target sequence (Q15475 whole entry, looked up): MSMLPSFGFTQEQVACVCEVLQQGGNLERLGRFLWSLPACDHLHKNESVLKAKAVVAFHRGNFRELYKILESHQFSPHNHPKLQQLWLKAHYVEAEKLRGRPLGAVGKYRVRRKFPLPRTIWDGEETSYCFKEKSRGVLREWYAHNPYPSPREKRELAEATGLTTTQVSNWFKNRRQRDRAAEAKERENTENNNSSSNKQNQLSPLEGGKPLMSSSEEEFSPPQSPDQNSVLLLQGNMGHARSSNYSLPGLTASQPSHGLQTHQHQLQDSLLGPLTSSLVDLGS
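AlphaScreen with GST-Six1 and His-Eya2 (5X mix: 250 nM and 500 nM), glutathione donor and nickel acceptor beads; buffer 50 mM Tris pH 8.0, 300 mM NaCl, 1 mM TCEP; 1 h at 37 C in the dark.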
D2 agonist: Beta-Arrestin HTS for Positive Allosteric Modulators of the Human D2 Dopamine Receptor: Agonists; actives 0.084% (n = 360,000); AID 624465, 2012; DiscoveRx PathHunter D2 beta-arrestin, luminescence, 90 min; 100% = 57 uM dopamine signal; D(2) dopamine receptor (Homo sapiens), P14416; activation, % (no concentration beside the values); in the data active = activation above about 40%; inconclusive = about 15% to 40%; inactive = below about 15%; note: compound concentration not given in the record; the text of the record calls up to 30% inactive
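Agonist mode: compounds alone added to overnight-plated D2 PathHunter cells for 90 min at 37 C, with 57 uM final dopamine (EC100) defining full response. Beta-arrestin recruitment detected by chemiluminescent reagent, read after 1 h at ambient temperature.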
gsp ag: qHTS for Agonist of gsp, the Etiologic Mutation Responsible for Fibrous Dysplasia/McCune-Albright Syndrome: qHTS; gsp mutant cells, cAMP HTRF, 30 min; control for the full effect not named in the record; Potency, µM (titrated, usually from 76.9 µM), for inactives: top-dose activation (cAMP increase), usual class: activators; actives 0.13% (n = 340,000); active = well fitted activation curve with a large enough effect; inconclusive = small, poorly fitted or top-dose-only effect, or another doubt; inactive = no such curve, though single readings can be large or run the other way; cell line not stated here;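 note: phosphodiesterase inhibitor Ro 20-1724 added with compounds to block cAMP breakdown; potency is the fitted concentration of half-maximal effect; nearly all actives have a fitted effect of over 60% in size; about a fifth of the inactives were tested at one dose only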
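Cells stably selected in G418 were plated at 2000/well, grown 16-24 hr, then given compounds in DMSO with the PDE inhibitor […] (300 uM solution added) for 30 min at 37C; cAMP was read by HTRF.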
D2 PAM: Beta-Arrestin HTS for Positive Allosteric Modulators of the Human D2 Dopamine Receptor: Potentiators; D(2) dopamine receptor (Homo sapiens), P14416; DiscoveRx D2 beta-arrestin cells, luminescence, 90 min; 100% = 57 uM dopamine signal; potentiation, % (concentration not given with the values); actives 0.23% (n = 360,000); active = potentiation of 50% or more; inconclusive = 30% to 50%; inactive = 30% or less;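 note: compound concentration not given in the record; tested on top of an EC20 dose of dopamine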
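PathHunter D2 cells, attached overnight at 37 deg C, received compound in DMSO plus dopamine at EC20 (50 nM final) for 90 min at 37 deg C. Beta-arrestin recruitment was read as luminescence after 1 h with detection reagent at ambient temperature.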
An asterisk follows results filed as active; ? = inconclusive; . = not tested or not shown; & = joins results of further samples; [ ] = another dose, or the depositor's remark.

SMILES | gsp antag | CtBP-E1A inh | Six1-Eya2 blk | D2 agonist | gsp ag | D2 PAM
CCc1nnc(NC(=O)CCN2C(=O)c3ccccc3C2=O)s1 | 9% | 0 | -3 | -0.2 | 30% | -9
COc1cc2c(cc1OC)CN(C(=O)CCN1C(=O)C3CCCCC3C1=O)CC2 (centres undefined) | . | 10 | 2 | 0.5 | -17%[15.4 µM] | -13
O=C(CCCCCCCC(=O)NCC1CCCO1)NCC1CCCO1 (centres undefined) | 6% | 4 | 7 | -4.3 | -16% | 4
COc1ccccc1OCc1ccc(C(=O)Nc2ccccc2F)cc1 | 15% | 5 | 1 | -1.3 | 5% | -20
CC1(C)Cc2c(c(N3CCOCC3)nc3sc4c(NCc5ccccc5)nnnc4c23)CS1 | -5% | -1 | -3 | 1.2 | -2% | 6
O=C1c2ccccc2C(=O)N1S(=O)(=O)c1ccccc1 | 15% | 9 | 2 | -1.4 | 3% | 5
Cc1c(Nc2ccc(C=O)cc2)c(=O)n(-c2ccccc2)n1C | 4% | 0 | -5 | 5.6 | -2%[15.4 µM] | -9
CCOc1ccc(C(NC(=O)c2ccco2)c2ccc(OC)c(OC)c2)cc1 (centres undefined) | -3% | -2 | -2 | -2.2 | -12% | -4
O=C(c1ccc([N+](=O)[O-])cc1[N+](=O)[O-])N1CCc2ccccc21 | -1% | -13 | -17 | -0.9 | 6% | -10
Cc1ccc(S(=O)(=O)N(C)c2ccc3c(ncn3C)c2[N+](=O)[O-])cc1 | 2% | 2 | 9 | -2.6 | ? | -33
CCN(CC)C(=O)C1CCCN(c2ccc([N+](=O)[O-])cc2/C=N/NC(=O)c2ccccc2)C1 (centres undefined) | -10% | 2 | 4 | -0.3 | 12%[15.4 µM] | -3
COC(=O)c1cc(=O)nc(NN=Cc2ccc(C)cc2)s1 | . | 6 | 7 | -4.9 | . | -4
CC(C)[C@H](NC(=O)c1ccccc1)C(=O)OCC(=O)NCCc1ccc(F)cc1 | -6% | 1 | 1 | -4.4 | 4% | -18
CCCCCCCCCC[N+](C)(C)CC/C=C1/c2ccccc2Sc2ccc(Cl)cc21 | -5% | . | -2 | -10 | ? | -55
COC(=O)CCC(=O)OC1(C)C(=O)C=C2C=C(C3CC3)N(c3ccccc3)C=C2C1=O (centres undefined) | -8% | 2 | -4 | 4.1 | . | 1
Cc1ccc(S(=O)(=O)NCc2cccnc2)cc1C | 9% | 5 | -3 | 0.0 | 2% | -2
Cc1cccnc1NC(=O)c1ccc(Cl)c(S(=O)(=O)N2CCCCC2)c1 | -1% | 0 | 33 | -1.2 | 6% | -20
COc1ccc(CC(CC(=O)O)C(=O)Nc2ccc(OC)cc2)cc1 (centres undefined) | 0% | 3 | 0 | -3.2 | 16% | -6
CCCCCCCCCCn1ccc(=N)cc1 | 7% | -10 | 9 | 3.2 | 1%[15.4 µM] | -15
CC1CN(CCC(=O)Nc2ccc3c(c2)OCO3)CC(C)O1 (centres undefined) | 10% | 12 | -3 | -0.2 | 0% | -5
CCC(C)(C)NC(=O)c1ccc2c(c1)N(CC(=O)N1CCCC1)C(=O)C(C)(C)O2 | -10% | 6 | 5 | 1.0 | -52%[inhibitor] | 3
Cc1ccc[n+](CC(=O)Nc2ccc(N(C)C)cc2)c1 | ? | 0 | -4 | -6.3 | -55%[inhibitor] | -5
CCCCCCSc1cc(-c2nc3ccc(C)cn3c2NCc2ccccc2)ccc1OC | -5% | -11&-1 | 0&-14 | -3.9 | . | -3
Cc1cc(C(=O)COC(=O)c2ccc(NC(=O)CC#N)cc2)c(C)n1C1CC1 | 1% | -13 | -18 | -1.4 | 10%[15.4 µM] | 12
Cc1onc(-c2ccccc2)c1NC(=O)N(Cc1ccccc1)C(C)C | -14% | . | 3 | -4.6 | -29% | 2
COCCNC(=O)C1CC2Cn3c(nc4cc5ccccc5cc43)C2N1C (centres undefined) | 6% | 3 | 3 | -0.3 | . | 3
CS(=O)(=O)N(CC(=O)Nc1ccccc1C(=O)N1CCCC1)c1cccc([N+](=O)[O-])c1 | -3% | . | 0 | -5.5 | ? | -4
C/C(=N\NC(=O)CCc1ccc(S(=O)(=O)N2CCOCC2)cc1)c1ccc(Br)cc1 | -21% | 3 | 1 | -3.6 | 4%[15.4 µM] | -7
OCCC1CN(Cc2nc3c(s2)CCCC3)CCN1Cc1ccsc1 (centres undefined) | 1% | 0 | -4 | -5.1 | 1%[15.4 µM] | -6
Cc1cc(C)c2nc(C)cc(Nc3ccc(C(=O)N(C)C)cc3)c2c1 | 7% | . | -2 | -4.8 | -32%[inhibitor] | -17
COc1ccc(-c2cc(=O)oc3c(C)c(OC(C)C(=O)Nc4ccc(CN5CCOCC5)cc4)ccc23)cc1 (centres undefined) | -22% | -7 | -15 | -1.3 | 11% | -7
COc1cc(NS(=O)(=O)c2ccc(NC(=O)c3ccc(Cl)cc3Cl)cc2)ncn1 | -5% | -2 | -14 | -1.2 | -25% | 22
CC1Cc2cc(/C(O)=C3/C(=O)C(=O)N(CCCN(C)C)C3c3ccncc3)ccc2O1 (centres undefined) | -8% | 3 | 5 | -3.7 | -28% | -4
Cc1ccc(-n2nnnc2SCn2nnc3ccccc3c2=O)cc1 | -7% | 2 | -16 | -4.2 | -42%[inhibitor] | 9
COc1ccc(CNC(=O)c2sc(=S)n(-c3ccccc3)c2N)cc1 | 0% | -20 | -9 | -4.1 | -1%[15.4 µM] | -6
c1ccc(-n2ncc3c2ncn2nc(-c4ccco4)nc32)cc1 | 38%[activator] | 8 | -4 | -0.8 | ? | -1
COc1ccc2cc(C(=O)CS(=O)(=O)c3ccccc3)c(=O)oc2c1 | -5% | . | -5 | -3.8 | -13% | -6
O=C1CC(NS(=O)(=O)c2ccc([N+](=O)[O-])cc2)CN1c1ccc(Cl)cc1 (centres undefined) | -2% | 8 | -11 | 10 | 18% | 11
CCNC(=O)c1ccc2c(c1)S(=O)(=O)c1ccccc1C2=O | 22% | -18 | -2 | 7.6 | 3% | 9
CCCCN(C(=O)c1ccccc1Cl)C(CC(C)C)c1nc2ccccc2[nH]1 (centres undefined) | . | 6 | 20 | -7.2 | . | -5

Gathered by group, the entries above with a nitro group on carbon.
SMILES | gsp antag | CtBP-E1A inh | Six1-Eya2 blk | D2 agonist | gsp ag | D2 PAM
O=C(c1ccc([N+](=O)[O-])cc1[N+](=O)[O-])N1CCc2ccccc21 | -1% | -13 | -17 | -0.9 | 6% | -10
Cc1ccc(S(=O)(=O)N(C)c2ccc3c(ncn3C)c2[N+](=O)[O-])cc1 | 2% | 2 | 9 | -2.6 | ? | -33
CCN(CC)C(=O)C1CCCN(c2ccc([N+](=O)[O-])cc2/C=N/NC(=O)c2ccccc2)C1 (centres undefined) | -10% | 2 | 4 | -0.3 | 12%[15.4 µM] | -3
CS(=O)(=O)N(CC(=O)Nc1ccccc1C(=O)N1CCCC1)c1cccc([N+](=O)[O-])c1 | -3% | . | 0 | -5.5 | ? | -4
O=C1CC(NS(=O)(=O)c2ccc([N+](=O)[O-])cc2)CN1c1ccc(Cl)cc1 (centres undefined) | -2% | 8 | -11 | 10 | 18% | 11

Other compounds follow.
SMILES | gsp antag | CtBP-E1A inh | Six1-Eya2 blk | D2 agonist | gsp ag | D2 PAM
CCCn1c(SCC(=O)Nc2ccc(NC(C)=O)cc2)nc2c1c(=O)n(C)c(=O)n2C | 4% | 0 | -3 | 1.0 | 18µM* | 3
Clc1ccc(-n2ncc3c(NCc4ccc5c(c4)OCO5)ncnc32)cc1 | 0% | 5 | 5 | 7.9 | 2% | ?
CCOC(=O)CSc1nc2c(c(=O)n1-c1ccc(OC)cc1)SCC2 | 3% | 2 | -1 | -3.8 | -28% | -4
COc1cc(C(=O)NCc2ccc(-c3nc4ccccc4s3)cc2)cc(OC)c1OC | -2% | 7 | 2 | -0.2 | -16% | -27
Cc1cccc(-n2c(Cc3cc(=O)[nH]c(=O)[nH]3)nnc2SC(C)C)c1 | 9% | 3 | -1 | -2.0 | 25% | -1
CCn1c(CCNC(=O)c2ccc(C)cc2)n[nH]c1=S | 9% | -16 | -7 | 3.9 | -36%[inhibitor] | -22
COc1ccccc1N1CCN(CC(O)COc2c(OC)cccc2OC)CC1 (centres undefined) | 2% | 0 | -7 | 1.7 | -10% | -13
COC(=O)CCC(=O)c1ccn(S(=O)(=O)c2ccccc2)c1 | -4% | -5 | 2 | 1.6 | ? | -7
COc1ccc(C2=CC(c3ccc(F)cc3)n3nnnc3N2)cc1 (centres undefined) | -6% | 5 | 7 | -1.2 | -38%[inhibitor] | -24
Cc1noc(C)c1CSCC(=O)N1CCN(c2ccc([N+](=O)[O-])cc2)CC1 | -39% | -6 | -6 | 1.8 | -32%[inhibitor] | 1
Cc1ccc(-c2cccc(CN3CCN(C4CCN(C(C)C)CC4)C(CCO)C3)c2)o1 (centres undefined) | 10% | -24 | -17 | 0.1 | 12% | -17
Cc1ccc(-c2csc3ncnc(Cl)c23)cc1 | 3% | 10 | 0 | 0.4 | -10%[15.4 µM] | 0
Cc1ccc(N2C(=O)CS/C2=C(\C(Cl)=C(Cl)Cl)[N+](=O)[O-])cc1 | -15% | -11 | -11 | 1.0 | 1% | -5
CCC(C)(C(=O)NC1CCCCC1)N(C(=O)Cc1cccs1)c1ccccc1 (centres undefined) | -1% | -14 | 1 | -0.8 | 7% | -25
COc1ccc(NC2CCCN(C(=O)C3=NNC(=O)CC3)C2)cc1 (centres undefined) | . | 3 | 1 | -3.3 | -81%[inhibitor] | -2
CCc1cccc(NC(=O)CSC2=NS(=O)(=O)c3ccccc32)c1 | -6% | -20 | 6 | -4.4 | ? | -7
Cc1cccc(C(O)C(O)c2cccc(C)n2)n1 (centres undefined) | 4% | 7 | 0 | -0.6 | -15% | 3
Cc1ccc(NC(=O)O/N=C/c2ccc(F)cc2)cc1 | 5% | . | -19 | 1.8 | -12% | -5
COC(=O)C1=C(C)N=C2SC(C)C(=O)N2C1c1cccc(F)c1 (centres undefined) | 25% | 11 | 17 | -4.1 | 9% | -15
C[C@H](CO)N1C[C@H](C)[C@@H](CN(C)C)Oc2c(NS(=O)(=O)c3ccc(F)cc3)cccc2C1=O | 7% | 3 | -2 | -0.3 | . | -3
COc1ccc(Nc2nc(-c3ccccc3F)nc3ccccc23)cc1OC | ? | 0 | 0 | 6.6 | 13% | 5
